High-throughput results from PubChem BioAssay.
miR-21 FLuc – qHTS Assay for Modulators of miRNAs and/orActivators of miR-21 | HeLa miR-21 FLuc reporter, luciferase, 48 h | AID 2288, 2010 | 340,000 tested, under 10 active | Potency, µM (titrated, usually from 38.3 µM), for inactives: at the highest dose reporter change, positive = more light; active = well fitted rising curve with a large enough effect; inconclusive = small, poorly fitted or top-dose-only effect; inactive = no such curve, though single readings can be large or run the other way;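 note: % of control where 0% means no effect; miR-21 action dims this reporter so a rising signal means less miR-21 action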
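Luminescence from a firefly luciferase reporter carrying a miR-21 binding site downstream, stably expressed under a CMV promoter in HeLa cells that make miR-21 endogenously, reports miRNA modulation after 48 h compound exposure up to approximately 40uM final.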
Rango release inh – qHTS Assay for Inhibitors of RanGTP induced Rango (Ran-regulated importin-beta cargo) - Importin beta complex dissociation; Snurportin-1 (Homo sapiens) + GTP-binding nuclear protein Ran (Homo sapiens) + Importin …; Biochemical FRET Rango-importin beta, RanGTP-induced dissociation; Potency, µM (doses to about 46.1 µM), without a hit: top-dose activity change, negative = inhibition; actives 0.071% (n = 340,000); active means falling FRET ratio curve, often poorly fitted, with flat reads before Ran was added; inconclusive means other falling curves, or compound fluorescence or quenching; inactive means flat or rising ratio curve;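 note: potency is the fitted concentration of half-maximal effect; % of control where 0% means no effect; nearly all actives have a fitted effect of over 45% in size; -100% = wells without RanGTP and RCC1; the record marks most hits as doubtful in a second field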
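Quantitative HTS using a FRET biosensor: 0.1 uM Rango, 0.25 uM importin beta, 0.6 uM Ran, 2 mM GTP, 0.2 uM RCC1 final, PBS with DTT, Tween-20 and BSA. Post-read taken 45 min after Ran addition.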
GLA inh pH 4.5 – qHTS Assay for Inhibitors of Human alpha-Galactosidase at pH 4.5. 230,000 tested, under 10 active. Alpha-galactosidase A (Homo sapiens), P06280. AID 1467, 2008. activity change, negative = inhibition, % at 105 µM. purified enzyme, 4-MU-alpha-Gal fluorescence, pH 4.5; inconclusive = small, poorly fitted or top-dose-only inhibition, or a rising curve; inactive = flat fitted curve, though single readings scatter; no compound was filed as active;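 note: 0% = full activity with enzyme and -100% = basal without enzyme; dose as in the result columns while the protocol names 77 µM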
Target sequence (P06280 whole entry, looked up): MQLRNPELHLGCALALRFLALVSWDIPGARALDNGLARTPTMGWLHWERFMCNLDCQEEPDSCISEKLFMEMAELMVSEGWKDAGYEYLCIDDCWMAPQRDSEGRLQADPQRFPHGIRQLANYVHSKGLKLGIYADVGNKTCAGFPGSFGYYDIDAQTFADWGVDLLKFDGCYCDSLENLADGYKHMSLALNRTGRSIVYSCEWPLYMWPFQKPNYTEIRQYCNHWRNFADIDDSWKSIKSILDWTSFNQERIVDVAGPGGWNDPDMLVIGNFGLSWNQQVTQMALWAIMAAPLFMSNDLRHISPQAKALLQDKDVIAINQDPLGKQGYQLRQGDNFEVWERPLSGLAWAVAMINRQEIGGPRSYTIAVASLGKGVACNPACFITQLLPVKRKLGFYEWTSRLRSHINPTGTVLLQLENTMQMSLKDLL
Rango complex inh – qHTS Assay for Inhibitors of Rango (Ran-regulated importin-beta cargo) - Importin beta complex formation. actives 0.031% (n = 340,000). Rango CFP/YFP FRET sensor + importin beta, 45 min. Potency, µM (highest dose often 92.2 µM), for the others: at the top dose inhibition of complex formation; active = rising FRET ratio curve, often small or poorly fitted; inconclusive = mostly compound fluorescence or quenching in the first reads; inactive = flat curves in all reads;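 note: potency is the fitted concentration of half-maximal effect; 0% = DMSO wells and 100% = buffer wells lacking importin beta; nearly all actives have a fitted effect of over 15% in size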
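FRET biosensor (snurportin 1 IBB flanked by EYFP and cerulean), 50 nM, with compound 5 min, then 0.125 microM importin beta in PBS, 1 mM DTT, 0.02% Tween-20, 0.1% BSA. CFP/YFP ratio read after 45 min at room temperature; pre-read flags interference.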
The depositor's hits bear a star; ? = inconclusive; · = no result given; & = joins results of further samples. A portion of the library; count on the stated rates, not on these rows.

Results follow in this order: miR-21 FLuc, Rango release inh, GLA inh pH 4.5, Rango complex inh
Cc1ccc(CCNC(=O)CS(=O)Cc2nc(-c3cccc(C)c3)oc2C)cc1 (centres undefined)
  -1.5%, -27.3%, -12.5, 0.9%
Cc1c(NC(=O)COC(=O)c2cc(-c3cccc4ccccc34)nc3ccccc23)c(=O)n(-c2ccccc2)n1C
  -0.9%, 9.1%, -10.6, -2.1%
O=[N+]([O-])c1ccc(N2CCNCC2)cc1NCc1cccnc1
  -16.8%, 7.1%, -23.8, 0.5%
CCn1c(CNC(=O)c2cccc(C)c2)nnc1SCC(=O)NC1=NCCS1
  3.0%, 47.4%, ·, 6.3%
Cc1ccc2[nH]c(=O)c(CN(Cc3nnnn3C3CCCC3)C3CCCCC3)cc2c1
  -0.1%, -9.5%, -3.8, 0.1%
NC(=O)CSc1nc2sc3c(c2c2ncnn12)CCCC3
  -19.1%, 3.1%, 0.1, 0.2%
CC(C)C[C@H](NC(=O)c1cc2cc(Cl)ccc2n1C)C(=O)N1CCC(C(=O)O)CC1
  -10.4%, 1.4%, ·, 0.6%
COc1ccc(Nc2ncc3c(n2)CC(c2ccccc2)CC3=O)cc1 (centres undefined)
  -11.9%, 0.3%, 4.0, -3.1%
CCN(c1ccccc1)S(=O)(=O)c1cccc(C(=O)NCC(c2ccco2)N2CCCCC2)c1 (centres undefined)
  ·, -2.2%, ·, -0.2%
CC1CCN(S(=O)(=O)c2ccc(NC(=O)CN3CCN(C)CC3)cc2)CC1
  -7.2%, 4.2%, 11.4, 3.2%
CCN(CC)c1ccc(NC(=O)COc2ccccc2C)cc1S(=O)(=O)Nc1ccccc1OC
  -5.2%, 10.3%, -1.4, 3.0%
Cc1ccc(C)n1-c1ccc(N2CCOCC2)c([N+](=O)[O-])c1
  -7.7%, 2.1%, -4.5, 0.7%
Cc1ccc(-c2nn(-c3ccccc3)cc2/C=N/n2c(-c3ccncc3)n[nH]c2=S)cc1
  -2.4%, -3.9%, -6.4, 2.3%
Cc1cc(NC(=O)CSCC(=O)N2CCN(c3cccc(C(F)(F)F)c3)CC2)no1
  ·, -2.2%, ·, 0.7%
CSC(=NS(=O)(=O)c1ccc(N)cc1)NS(=O)(=O)c1cccs1
  ·, -10.4%, ·, 0.1%
COc1ccc(N/C=C\C(=O)c2ccc3c(c2)OCO3)cc1OC
  -69.7%, ?, -12.8, ?
CCN(c1cc(C)cc(C)c1)S(=O)(=O)c1nnc(NC(=O)c2ccco2)s1
  -0.3%&5.6%, -10.5%, ·, -0.5%
O=[N+]([O-])c1ccc(Cl)c(CN2CCCCCC2)c1
  7.2%, -8.3%, ·, ?
Clc1cccc(Cl)c1CNc1ccc(N2CCCC2)cc1
  -7.2%, -15.9%, 1.4, 2.0%
COc1ccc(/C=N/N=C2/NC(=O)C(CC(=O)O)S2)cc1OCc1ccc(Cl)cc1Cl (centres undefined)
  0.9%, 2.5%, -16.2, -3.3%
O=C(O)C1CCCCC1C(=O)NCc1ccc2c(c1)OCO2 (centres undefined)
  -1.4%, -4.2%, 1.4, -1.8%
Cc1ccc(NC(=O)CCS(=O)(=O)c2cccc3nonc23)cc1Cl
  1.9%&-12.0%, ?, ·, -0.2%
CC(C)NC(=O)NNC(=O)c1cc(COc2cc(Cl)cc(Cl)c2)on1
  0.8%, 4.4%, -2.1, -1.4%
Clc1ccc(C=Cc2ccccn2)c(Cl)c1
  ·, -2.8%, ·, -0.9%
Cc1ccc(NS(=O)(=O)c2c(C)nc3sccn3c2=O)cc1
  1.5%, ?, ·, -2.0%
CN(C)CCN1C(=O)C(=O)/C(=C(/O)c2ccc(S(=O)(=O)N3CCOCC3)cc2)C1c1ccc(Br)cc1 (centres undefined)
  0.0%, 0.1%, ·, 12.8%
COC(=O)c1cc(COc2ccc3ccc(=O)oc3c2)c(C)o1
  -2.3%, 17.1%, -9.5, 0.3%
CCOCCCNC(=O)CSc1nc2nc(C)c(Cc3ccccc3)c(C)n2n1
  3.3%, 1.9%, -4.6, -0.2%
Cc1oc(/N=C/c2ccc(O)cc2O)c(C#N)c1C
  0.1%, ?, -2.6, ?
C/C=C(/C)C(=O)O[C@@H]([C@H](O)c1cc2ccc(=O)oc2cc1OC)C(C)(C)O[C@@H]1O[C@H](CO)[C@@H](O)[C@H](O)[C@H]1O
  ·, -17.5%, ·, -5.1%
O=C(Cn1cc(C(=O)c2ccco2)c2ccccc21)Nc1ccccc1
  0.3%&-2.7%, ?, -3.3, 9.2%
Cc1nnc2ccc(N3CCN(c4ccccn4)CC3)nn12
  -4.3%, 7.5%, -2.5, -2.8%
CCOC(=O)N1CCN(C(=O)c2ccc3c(=O)n(-c4ccc(OC)cc4OC)c(=S)[nH]c3c2)CC1
  -0.4%, -0.3%, 0.2, -0.6%
COc1ccc(CC(NC(C)=O)C(=O)NC2CCN(C(=O)C3CC3)CC2)cc1OC (centres undefined)
  -0.6%, -0.2%, 12.1, 0.9%
Cc1ccccc1NS(=O)(=O)c1cc(C(=O)N2CCCC2)ccc1C
  -8.7%, 6.4%, 2.4, 9.6%
COc1ccc(/C=C/C(=O)NCc2nc3ccccc3[nH]2)cc1OC
  -20.3%, -14.9%, -4.1, -0.4%
O=C(NCc1ccco1)c1ccc(Oc2ccccc2)cc1
  -35.8%, -4.6%, 3.8, 2.7%
COc1ccc(C(=O)CN2C(=O)NC3(CCCc4ccccc43)C2=O)cc1OC (centres undefined)
  -12.4%, 15.9%, -0.6, -3.9%
NC(=S)N=Nc1c(O)n(CC(=O)Nc2ccccc2)c2ccccc12
  -12.4%, 2.1%, ·, -0.8%
COc1ccc(/C(O)=C2/C(=O)C(=O)N(CCCN(C)C)C2c2ccc(Cl)cc2)cc1OC (centres undefined)
  ·, 3.5%, ·, -3.9%
Cc1nnc(C)n1/N=C/c1cccc(Oc2ccccc2)c1
  -0.6%, 0.5%, -4.2, 4.7%
CCOC(=O)CN1C(=O)S/C(=C/c2cc(C)n(-c3ccccn3)c2C)C1=O
  -34.3%, -25.1%, -9.1, ?
O=C(NC(=S)Nc1cccc2cccnc12)c1ccccc1
  -18.9%, -4.7%, -17.9, -0.2%
O=C(NCc1ccco1)c1nc2ncccn2n1
  0.6%, 0.4%, 14.2, -2.6%
COc1ccc(C(=O)Nc2nc3ccccc3c(=O)[nH]2)cc1
  -23.7%, 5.1%, ·, 0.6%

Sorted by formula weight (highest first): 3 of the compounds above
Results follow in this order: miR-21 FLuc, Rango release inh, GLA inh pH 4.5, Rango complex inh
NC(=S)N=Nc1c(O)n(CC(=O)Nc2ccccc2)c2ccccc12
  -12.4%, 2.1%, ·, -0.8%
Cc1nnc2ccc(N3CCN(c4ccccn4)CC3)nn12
  -4.3%, 7.5%, -2.5, -2.8%
O=C(NCc1ccco1)c1nc2ncccn2n1
  0.6%, 0.4%, 14.2, -2.6%

Back to the main list, repeating the five entries before the break.
Results follow in this order: miR-21 FLuc, Rango release inh, GLA inh pH 4.5, Rango complex inh
Cc1nnc(C)n1/N=C/c1cccc(Oc2ccccc2)c1
  -0.6%, 0.5%, -4.2, 4.7%
CCOC(=O)CN1C(=O)S/C(=C/c2cc(C)n(-c3ccccn3)c2C)C1=O
  -34.3%, -25.1%, -9.1, ?
O=C(NC(=S)Nc1cccc2cccnc12)c1ccccc1
  -18.9%, -4.7%, -17.9, -0.2%
O=C(NCc1ccco1)c1nc2ncccn2n1
  0.6%, 0.4%, 14.2, -2.6%
COc1ccc(C(=O)Nc2nc3ccccc3c(=O)[nH]2)cc1
  -23.7%, 5.1%, ·, 0.6%
CN(C(=O)CO/N=C/c1ccc(OC(F)F)cc1)C1CCS(=O)(=O)C1 (centres undefined)
  -1.8%, 2.1%, -2.5, 0.8%
Cc1ccc(CCC(=O)Nc2ccc([N+](=O)[O-])cc2Cl)o1
  -15.7%, 19.2%, ·, 1.0%
CCOC(=O)C1=CC[C@@H](c2cc3cc(OC)ccc3n2C)N(S(=O)(=O)c2ccc(C)cc2)[C@H]1C(=O)OCC
  ·, 2.7%, ·, 0.6%
Cc1cc(C)nc(CCNC(=O)c2cc(COc3ccc(F)cc3F)on2)n1
  -2.1%, 1.2%, -1.4, 0.0%
Cc1ccc(NC(=O)COc2ccc(S(=O)(=O)N3CCOCC3)cc2)cc1
  -0.6%, -5.9%, 7.1, 3.8%
Cc1ccc(N2CCN(C(=O)c3cccs3)CC2)c(C)c1
  -3.0%, -2.3%, ·, -0.4%
CN1CCN(C(=O)CCCOc2ccc(Cl)cc2Cl)CC1
  -35.2%, -18.1%, -5.1, 0.3%
CCOC(=O)C1=C(COC(=O)COc2ccc(OCC)cc2)NC(=O)NC1C (centres undefined)
  ·, 10.5%, ·, -0.7%
CC1CCC2(CC1)NC(=O)N(CC(=O)Nc1cccc(S(=O)(=O)N3CCCCC3)c1)C2=O (centres undefined)
  ·, 24.3%, ·, -0.2%
COC(=O)c1sc(SC)c2c1CC(C)(C)C/C2=N/O
  0.3%, 1.0%, -1.5, -1.7%
COC(=O)c1sccc1NC(=O)CSc1ccccc1NC(=O)CNC(C)C
  -3.8%, 12.1%, -15.3, 0.6%
CC1(C)CC(=O)C=C(NCCO)C1
  0.3%, -26.7%, 1.6, 2.5%
CCN(CC)C(=O)c1ccc2nc(-c3ccccc3)c(-c3ccccc3)nc2c1
  2.4%, 5.3%, 0.2, -2.1%
CCOC(=O)CCC(=O)OCC(=O)NC(C)C1CC2CCC1C2 (centres undefined)
  -2.4%, -0.7%, -14.0, 0.6%
CCc1cccc(C)c1NC(=S)N1CCCC1C(=O)O (centres undefined)
  -4.1%, 9.8%, 3.8, -1.4%
O=C(Nc1nccs1)c1ccccc1Br
  -21.7%, 1.7%, ·, -1.9%
CC1CCN(C(=O)CSc2ccc(-c3cccnc3)nn2)CC1
  1.3%, -4.2%, ·, 3.8%
O=C(CCN1CCN(Cc2ccccc2)CC1)Nc1ccc(OCc2ccccc2)cc1
  12.3%, 1.3%, ?, -1.8%
COCCNC(=O)c1c[nH]c2ccc(S(=O)(=O)Nc3ccc(F)cc3F)cc2c1=O
  3.9%&0.9%, 0.5%, ·, 2.0%
Cc1ccc(C)c(OCCCNCc2ccccc2)c1
  -4.4%, 0.4%, ·, -1.6%
N#C/C(=C\c1ccccc1)C(=O)Nc1ccccn1
  0.8%, ?, ·, ?
COc1cc(/C=C/C(=O)O)cc(S(=O)(=O)N2CCN(S(=O)(=O)c3ccc(Cl)cc3)CC2)c1OC
  -0.1%, -2.3%, ·, 0.8%
Cc1cc(C(=O)COC(=O)C2=NN(c3ccccc3)C(=O)CC2)c(C)n1CC(F)(F)F
  -4.2%, 3.6%, 6.0, 0.6%
c1ccc2c(CNCCN3CCOCC3)cccc2c1
  -8.8%, 7.6%, -7.8, 5.8%
O=C(N/N=C/c1cccnc1)c1ccccc1[N+](=O)[O-]
  -4.0%, 11.5%, -9.2, -0.7%
O=C(NCCc1ccccc1)C(=O)N/N=C/c1ccccc1C(F)(F)F
  -1.2%, 14.3%, 5.3, 4.4%
C/C(=N/NS(=O)(=O)c1ccc(C)cc1)[C@H]1C[C@@H]1c1ccccc1
  -5.9%, -7.8%, -2.4, -1.8%
COc1ccc(Nc2nc(Cl)nc(NCc3ccco3)n2)cc1
  -2.2%, 2.0%, -1.0, -0.1%
COc1ccc(S(=O)(=O)N2CCN(C(=O)c3cc4c(s3)CCCC4)CC2)cc1
  ·, 2.4%, ·, 1.8%
CCOC(=O)c1[nH]c2ccccc2c1NC(=S)Nc1ccccc1C
  -32.6%, -19.8%, 0.6, -0.1%
